Mtb MbtI inh – inhibitors of Mycobacterium tuberculosis siderophore enzyme MbtI; P9WFX0; purified MbtI enzyme, fluorescence intensity read-out; inhibition, %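 (about 17 µg/mL by stock and volumes)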; 0.89% of 100,000 active; AID 493033;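 active = above 50% in both replicates, above 80% if mildly self-fluorescent; inactive = the rest, strongly fluorescent compounds included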;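 note: 0% = mean of negative and 100% = mean of positive controls; one replicate is shown; some compounds called inactive have numbers as strong as hits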
Target sequence (P9WFX0 whole entry, looked up): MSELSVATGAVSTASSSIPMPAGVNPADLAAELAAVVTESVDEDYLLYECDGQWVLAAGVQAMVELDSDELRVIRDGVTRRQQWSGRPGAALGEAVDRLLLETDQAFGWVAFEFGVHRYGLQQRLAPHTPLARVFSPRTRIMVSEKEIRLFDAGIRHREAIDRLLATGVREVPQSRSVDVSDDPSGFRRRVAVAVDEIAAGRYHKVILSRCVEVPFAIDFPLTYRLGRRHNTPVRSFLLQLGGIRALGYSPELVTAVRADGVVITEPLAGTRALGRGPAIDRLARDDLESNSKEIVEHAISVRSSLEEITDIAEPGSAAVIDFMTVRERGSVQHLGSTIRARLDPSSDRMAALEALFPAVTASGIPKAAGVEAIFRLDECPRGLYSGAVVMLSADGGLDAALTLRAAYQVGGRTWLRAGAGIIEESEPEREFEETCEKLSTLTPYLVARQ
MenB inh – Mtb MenB enzyme inhibition; P9WNP5; 0.43% of 100,000 active; MenB enzyme assay, absorbance read-out; some hits fall short of the stated cut; inhibition, %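 (about 12 µg/mL by stock and volumes)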; AID 540299;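 active = mean of two replicates above 30%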;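 note: 0% = no compound and 100% = wells with inactive enzyme; the first replicate is given; strong numbers were not always called active; inactives centre near -10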
Target sequence (P9WNP5 whole entry, looked up): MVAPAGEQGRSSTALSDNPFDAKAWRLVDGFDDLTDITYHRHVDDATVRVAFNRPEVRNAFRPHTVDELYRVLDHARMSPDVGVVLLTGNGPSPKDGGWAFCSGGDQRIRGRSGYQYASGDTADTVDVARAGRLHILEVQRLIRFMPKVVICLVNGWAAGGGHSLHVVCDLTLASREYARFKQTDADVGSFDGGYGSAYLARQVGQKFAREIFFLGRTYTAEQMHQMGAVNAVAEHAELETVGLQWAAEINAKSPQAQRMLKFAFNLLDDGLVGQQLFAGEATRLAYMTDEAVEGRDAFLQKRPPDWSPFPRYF
Polio RdRp inh – inhibitors of poliovirus RNA polymerase binding and polymerization; P03300; poliovirus polymerase elongation, fluorescence polarization; active compounds read low; % elongation, % (compound at 16.7 µg/mL); 0.66% of 150,000 active; in the data active = % elongation below about 90%; note: some results filed as inactive read as strong as hits
Polio RdRp inh intensity – recorded beside Polio RdRp inh, whose call it bears; % elongation; measured here: total intensity read-out; formula for this scale not given here;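 total fluorescence in place of polarization; lower means less elongation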
* = called active by the depositor; i = inactive; x = not tested or not shown.

SMILES	Mtb MbtI inh	MenB inh	Polio RdRp inh	Polio RdRp inh intensity
Nc1ccccc1C(=O)NCc1ccco1	91	x	104	96
COC(=O)c1ccsc1NC(=O)C1COc2ccccc2O1 (stereo not drawn)	2	-8	103	102
O=C(c1cc2ccccc2oc1=O)N1CCSC1c1ccco1 (stereo not drawn)	15	2	99	105
CC(C)(C)c1ccc(N=Cc2ccsc2)cc1	-15	x	104	109
CC1(C)Oc2ccc(N)cc2O1	24	-8	102	104
O=c1cc(O)nc2c(Cl)cc(C(F)(F)F)cn12	2	-12	103	109
CC(C)(C)C(=O)CN1CCN(c2ccccc2O)CC1	1	1	100	102
CCn1c(-c2ccccc2)c(C(=O)CN2CCN(C)CC2)c2ccccc21	-14	0	101	114
COC(=O)CNC(=O)c1ccccc1Cl	-9	-14	100	102
CC(C)c1cccc(C(C)C)c1NC(=O)CCCN1C(=O)NC2(CCCC2)C1=O	-9	3	101	106
CCN1C(=O)c2ccc(C(=O)Nc3ccc(OC)cc3)cc2C1=O	8	-1	101	100
Cc1ccccc1Nc1nc(N)nc(COC(=O)CC2Sc3ccccc3NC2=O)n1 (stereo not drawn)	-2	-29	105	96
CCOC(=O)c1cnc(SC2CC(=O)N(c3ccccc3)C2=O)nc1N (stereo not drawn)	49	-74	102	102
CC(=NCCc1c(C)[nH]c2ccc(OC(F)(F)F)cc12)C1=C(O)CC(c2ccccc2)CC1=O (stereo not drawn)	x	-23	101	105
Cn1ccnc1SCC(=O)N1c2ccccc2C(C)(c2ccc(Cl)cc2)CC1(C)C (stereo not drawn)	13	-26	99	103
OC(CN1CCN(c2ccccc2F)CC1)c1ccc2[nH]ccc2c1 (stereo not drawn)	3	-18	100	102
O=C(OCCOCCO)c1ccccc1Nc1cccc(C(F)(F)F)c1	-61	8	100	101
CC(C)c1ccc(-n2c(CCC(=O)O)ccc2-c2cccs2)cc1	111	-27	102	106
O=C(NCc1ccco1)c1ccc2c(c1)C(=O)N(Cc1ccccc1)C2=O	-8	-3	100	101
Cc1ccc(/C=N/NC(=O)CSc2nc3ccccc3n2Cc2ccccc2)o1	1	-21	102	102
CSC1=NC=C(C#N)C2=NC(C)(c3ccc(Cl)c(Cl)c3)NN12 (stereo not drawn)	18	-9	102	103
CN1CCC(=NNC(=O)c2ccc(CN3C(=O)c4cccc5cccc3c45)cc2)CC1	9	6	103	99
CC[N+]1(Cc2ccccc2)C2=C(CN(C)CC2)c2ccccc21 (stereo not drawn)	6	-23	102	109
CC1CCCN(CCCNS(=O)(=O)c2csc(C(N)=O)c2)C1 (stereo not drawn)	-23	-11	101	103

Some of the entries above, reformatted.
mol,Mtb MbtI inh,MenB inh,Polio RdRp inh,Polio RdRp inh intensity
CC(C)(C)C(=O)CN1CCN(c2ccccc2O)CC1,1,1,100,102
CCn1c(-c2ccccc2)c(C(=O)CN2CCN(C)CC2)c2ccccc21,-14,0,101,114
COC(=O)CNC(=O)c1ccccc1Cl,-9,-14,100,102
CC(C)c1cccc(C(C)C)c1NC(=O)CCCN1C(=O)NC2(CCCC2)C1=O,-9,3,101,106
CCN1C(=O)c2ccc(C(=O)Nc3ccc(OC)cc3)cc2C1=O,8,-1,101,100
Cc1ccccc1Nc1nc(N)nc(COC(=O)CC2Sc3ccccc3NC2=O)n1 (stereo not drawn),-2,-29,105,96
CCOC(=O)c1cnc(SC2CC(=O)N(c3ccccc3)C2=O)nc1N (stereo not drawn),49,-74,102,102
CC(=NCCc1c(C)[nH]c2ccc(OC(F)(F)F)cc12)C1=C(O)CC(c2ccccc2)CC1=O (stereo not drawn),x,-23,101,105
Cn1ccnc1SCC(=O)N1c2ccccc2C(C)(c2ccc(Cl)cc2)CC1(C)C (stereo not drawn),13,-26,99,103
OC(CN1CCN(c2ccccc2F)CC1)c1ccc2[nH]ccc2c1 (stereo not drawn),3,-18,100,102
O=C(OCCOCCO)c1ccccc1Nc1cccc(C(F)(F)F)c1,-61,8,100,101
CC(C)c1ccc(-n2c(CCC(=O)O)ccc2-c2cccs2)cc1,111,-27,102,106
O=C(NCc1ccco1)c1ccc2c(c1)C(=O)N(Cc1ccccc1)C2=O,-8,-3,100,101
Cc1ccc(/C=N/NC(=O)CSc2nc3ccccc3n2Cc2ccccc2)o1,1,-21,102,102
CSC1=NC=C(C#N)C2=NC(C)(c3ccc(Cl)c(Cl)c3)NN12 (stereo not drawn),18,-9,102,103

Next entries:
SMILES	Mtb MbtI inh	MenB inh	Polio RdRp inh	Polio RdRp inh intensity
CSC1=NC2(CCCCCC2)Cc2ccccc21	x	5	103	110
O=C(CSc1ccccn1)NC12CC3CC(CC(C3)C1)C2	0	x	102	105
Cc1nnc(NCc2ccccc2)n(N)c1=O	5	-18	103	108
CCN(CC)S(=O)(=O)c1ccc2c(c1)oc(=O)c1cc(S(=O)(=O)N(CC)CC)ccc12	-4	-30	108	101
COc1ccc(C(=O)Nc2cccc3ncccc23)cc1OC	2	5	103	117
O=C(CSC1=NCCS1)Nc1nc(-c2ccc(Cl)cc2)cs1	-27	-33	101	99
CC1=NN(C(=O)c2cccnc2)C(O)(c2ccccc2)C1 (stereo not drawn)	12	-90	104	101
O=C1NC(=O)C2(CCc3ccccc32)N1 (stereo not drawn)	-12	-6	110	112
CCc1nnc(SCCSc2nnc(CC)n2N)n1N	-5	13	103	105
CN(C)c1cc(-c2ccccc2)nc(-c2ccccc2)n1	-3	-16	101	103
CSc1nc(CSc2ccc(C)cc2)nc(N)c1C#N	-10	-32	100	100
CCC1=C(c2ccc(C)cc2)S(=O)(=O)NC1=NCC(=O)O	10	-8	102	104
Oc1ccc(-c2ccc(I)cc2)cc1	1	-14	99	102
CC(=O)OC1=C(C)C(c2ccccc2)N(C(C)=O)C(c2ccccc2)C1C (stereo not drawn)	-12	15	100	101
O=C(NCCN1CCOCC1)N(c1ccccc1)c1ccccc1	-12	-6	102	103
COC(=O)COc1ccc(S(=O)(=O)N2CCN(c3cc(Cl)ccc3C)CC2)cc1	1	-116	100	102
Cc1ccc(NC(=O)CN(C)CC(=O)Nc2ccccc2)cc1	8	-28	103	91
C=CCNC(=O)Nc1c[nH]c2ccc(F)cc2c1=O	110	-16	101	101
CCOc1ccc(CC2c3cc(OCC)c(OCC)cc3CCN2C(=O)COC(=O)c2cnccn2)cc1OCC (stereo not drawn)	-4	-16	101	100
CCC(C)NC(=S)NC1CCCCC1 (stereo not drawn)	1	-1	101	102
COc1ccc(NC(=O)NC2CC2)c(OC)c1	-15	-21	103	104
COc1ccc(N2CCN(CCCNCc3c(C(=O)O)n(C)c4ccccc34)CC2)cc1	4	12	102	99
COc1cc2c(cc1OC)C(CC(=O)O)NCC2 (stereo not drawn)	12	-8	x	x
O=C(CCN1C(=O)c2ccccc2S1(=O)=O)N1CCOCC1	17	-14	x	x
Cc1cccc(NC(=O)c2cnn(-c3ccccc3)c2NC(=O)c2ccco2)c1	x	-2	100	98
CC1(C)Cc2ccccc2C(NNC(N)=O)=N1	13	9	99	102
S=C(Nc1cccc(Cl)c1)NC12CC3CC(CC(C3)C1)C2	x	-22	111	115
COc1ccc(CNC(=O)c2cc(=O)[nH]c3ccc(S(=O)(=O)N4CCCC4)cc23)cc1	4	6	106	100
COc1cc(OC)c(NC(=O)c2oc3ccc4c(c3c2C)C(=O)CC2(CCCC2)O4)cc1Cl	12	-3	103	98
CNC(=S)N1CCNC(=O)C1CC(=O)Nc1cc(Cl)ccc1C (stereo not drawn)	-4	-10	99	101
CCOC(=O)c1ccc(-c2ccc(/C=C(/C#N)C(=O)Nc3ccc(C)cc3C)o2)cc1	-6	-4	95	131
O=C1c2ccccc2C(NCc2cccnc2)N1Cc1cccnc1 (stereo not drawn)	x	-10	106	112
CCN(CC)C(=S)SCc1ncc(-c2ccccc2)o1	20	-24	105	108
O=C(NC1CCSc2ccccc21)C1CCN(S(=O)(=O)c2ccccc2)CC1 (stereo not drawn)	9	-13	100	106
Cc1c(C(=O)OCC(N)=O)sc2nc(-c3cccs3)cc(C(F)(F)F)c12	-217	2	107	114
Cc1cccc(NC(=O)c2cc(N3C(=O)C=CC3=O)ccc2Cl)c1	x	-4	136	152
Fc1cccc(NCc2cccn2-c2nnc(N3CCCC3)s2)c1	0	-22	102	103
O=C(CC(C(=O)N1CCc2ccccc21)C(=O)N1CCc2ccccc21)c1ccccc1	-2	-21	105	108
O=C1NC(=Nc2cccc(C(=O)O)c2)S/C1=C/c1ccc(-c2ccc(C(=O)O)cc2)o1	40	-180	124	139
CCN(CC)S(=O)(=O)c1ccc(NC(=O)COc2ccc3c(C)cc(=O)oc3c2)cc1	-20	7	102	109
CC1CCc2cc(F)ccc2N1C(=O)C12CCC(c3nc(C#N)c(C#N)nc31)C2(C)C (stereo not drawn)	-18	2	100	102
O=c1oc2ccccc2nc1/C=C(\O)c1ccccc1	1	1	83	233
CCOC(=O)C1CC2CCCN2C12C(=O)N(Cc1ccccc1)c1ccccc12 (stereo not drawn)	8	8	101	100
O/N=C/c1cc2ccccc2nc1Cl	102	-11	117	140
O=C(Cn1nnc(-c2cccc(C(F)(F)F)c2)n1)NC(=O)NC1CCCC1	-5	-16	99	99
COc1cc(C2Sc3ccccc3NC3=C2C(=O)c2ccccc23)ccc1OC(C)=O (stereo not drawn)	-3	-28	102	109
Cc1nn(C2CCS(=O)(=O)C2)c(Cl)c1CNCCCn1ccnc1 (stereo not drawn)	-5	0	98	106
Cn1cnnc1SCC(=O)Nc1sc2c(c1C#N)CCC2	4	-4	100	102
CCCOc1ccc(Br)cc1/C=C1\NC(=S)NC1=O	-22	-87	82	127
NC(=O)c1oc2ccccc2c1NC(=O)CSc1ccccc1	x	-21	102	108
Cc1nn(CCC(=O)N2CCc3ccccc32)c(C)c1S(=O)(=O)N1CCCC1	-13	8	99	101
CCOc1ccc(CCNC(=O)c2nc(-c3cccnc3)no2)cc1	-23	5	103	104
CC1CC(C)CN(S(=O)(=O)c2ccc3[nH]cc(C(=O)NC4CCCCC4)c(=O)c3c2)C1 (stereo not drawn)	-19	-18	102	107
Cn1c(SCC(=O)c2ccccc2)nc2ccccc2c1=O	-18	-29	99	104
Cc1cc2c(=O)n(CC(=O)O)cnc2s1	-2	-5	101	105
O=C(O)C1CCCCC1C(=O)N1CCN(C(c2ccccc2)c2ccccc2)CC1 (stereo not drawn)	-26	-6	98	99
COC(=O)CSc1ccccc1C(=O)OC	i	-138	104	103
Cc1cc(NN)nc2ccc(Cl)cc12	-7	-21	112	120
C=C(C)Cn1c(C(O)c2ccccc2)nc2ccccc21 (stereo not drawn)	0	-20	104	104
CCOC(=O)c1[nH]c2c(c1-c1ccccc1)C(=O)CC(c1ccc(Cl)cc1)C2 (stereo not drawn)	1	-20	102	95
New compounds follow
SMILES	Mtb MbtI inh	MenB inh	Polio RdRp inh	Polio RdRp inh intensity
CCOC(=O)c1cc(=O)n(C)c2c1c(=O)oc1ccccc12	105	2	102	95
CCCN(CCC)S(=O)(=O)c1ccc(C(N)=O)cc1	-4	x	102	102
Cc1ccccc1N=Cc1ccco1	42	6	104	110
Nc1cccc(-c2cn3ccccc3n2)c1	3	-12	100	102
CCCCc1c(C)nc(-c2ccc(Cl)cc2)[nH]c1=O	28	-14	99	99
COc1ccc(-c2cc(CCCC(=O)NCCc3ccc(OC)cc3OC)no2)cc1	-2	-9	100	101
CNC(=O)CSc1nnc(NC2CCCCC2)s1	15	13	105	94
OCC1c2ccccc2-c2ccccc21	-6	-12	102	97
O=C(/N=C1/NC(=O)C(F)(C(F)(F)F)S1)NC1CCCCC1 (stereo not drawn)	85	-1	104	115
Cc1cc(C)c2[nH]c(=O)c(C(c3nnnn3CC3CCCO3)N3CCN(c4ccccc4F)CC3)cc2c1 (stereo not drawn)	-22	-19	103	102
O=C(c1cc(-c2ccc(Cl)cc2)on1)N1CCCC1	-6	13	102	104
CCOc1ccc(NC(=O)CN2CCCc3ccccc32)cc1	x	-16	105	111
CN(C)S(=O)(=O)c1ccc(=S)[nH]c1	95*	-53	96	95
CCN(C(=O)CCCN1C(=O)/C(=C\c2cccs2)SC1=S)C1CCS(=O)(=O)C1 (stereo not drawn)	-1	-68	x	x
C=CCN1C(=O)S/C(=C/c2ccc(N3CCOCC3)cc2)C1=O	-2	-73	103	100
CCN=c1scc(-c2ccco2)n1/N=C/c1cccc(C(F)(F)F)c1	-8	0	101	103
Cc1onc(-c2ccccc2)c1CNS(=O)(=O)c1cccc(Cl)c1	-11	-8	102	96
CCn1c2ccccc2c2nc(C)sc21	x	-2	107	104
O=C(c1ccccc1F)N(Cc1ccco1)c1ccc(O)cc1	-3	-22	101	97
COc1ccc(NC(=S)N(CC2CC=CCC2)CC2CCCO2)cc1 (stereo not drawn)	x	-11	97	93
O=S1(=O)CCN2C(=N1)OC(c1ccccc1)=C2c1ccccc1	65	-46	98	105
O=C(Nc1nc(-c2ccccc2)cs1)Oc1ccccc1	x	-12	106	98
COC(=O)c1ccc2c(c1)S(=O)(=O)NC(=NCc1ccco1)S2	-9	-11	99	106
CCN1C(=O)c2ccccc2S(=O)c2ccc(C(=O)NCC(OC)OC)cc21 (stereo not drawn)	1	5	100	105
Cc1cc(N)c2ncccc2c1	9	-24	100	102
O=C(CNC(=O)c1ccc(-c2ccccc2)cc1)OCc1nnc(-c2ccccc2)o1	-9	-15	110	113
CC(C)CNC(=O)c1ccccc1NC(=O)c1ccco1	13	24	102	102
Cc1ccccc1-c1nc(C#N)c(N2CCN(c3ccccc3)CC2)o1	-26	-43	99	98
CCOc1ccc(N=C=S)cc1	6	-59	94	101
COc1ccc(C2=C[N+](=O)C(C)(C)C(C)(C)N2[O-])cc1	11	-48	99	102

Assay outcomes deposited in PubChem BioAssay by ICCB-Longwood Screening Facility, Harvard Medical School.
